# High-throughput results from PubChem.
# GIV-Gai inh: inhibitors of GIV peptide binding to Galpha-i3, primary screen, biochemical, fluorescence polarization, FITC-GIV GBA peptide, rat Galphai3; percent of control (FP), % (concentration not given with the values); 0.42% of 210,000 active; Guanine nucleotide-binding protein G(i) subunit alpha-3 (Rattus norvegicus), P08753; AID 1224905, 2016; 90 min; active compounds read low; scaled: aluminum fluoride 0%, vehicle 100%;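 active means replicate mean at 85% of control or lower, very high polarization wells dropped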;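 further: wells of about 15 µL received 100 nL stock; the first replicate is given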
# Target sequence (P08753 whole entry, looked up): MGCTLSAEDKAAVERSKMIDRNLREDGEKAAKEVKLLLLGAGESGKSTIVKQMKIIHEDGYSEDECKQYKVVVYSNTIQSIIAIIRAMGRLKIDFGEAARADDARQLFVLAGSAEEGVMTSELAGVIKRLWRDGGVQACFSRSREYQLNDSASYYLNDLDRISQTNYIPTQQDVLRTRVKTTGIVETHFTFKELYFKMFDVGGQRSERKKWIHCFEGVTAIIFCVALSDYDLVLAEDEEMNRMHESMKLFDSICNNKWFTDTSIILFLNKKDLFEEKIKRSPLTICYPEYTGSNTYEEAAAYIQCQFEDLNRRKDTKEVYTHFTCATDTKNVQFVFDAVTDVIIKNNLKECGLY
# Sa growth 42C: S. aureus growth inhibition at 42 and 30 °C, primary screen, LtaS inhibitor project, RN4220, two temperatures; 0.53% of 170,000 active; OD600, 20 h, 42 °C; active compounds read low; relative growth, % (no concentration beside the values);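 active means growth at 42 °C up to 50% and 20 or more points under that at 30 °C, or under 10% at both; inconclusive means no clear call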;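 further: 300 nL library stock went into each well; scaled to the means of positive and negative controls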
# HCMV UL50-53 inh: inhibitors of HCMV UL50-UL53 interaction, biochemical, HTRF. 0.15% of 190,000 active. inhibition, % (test concentration not listed). AID 1918969, 2023. HCMV UL50-UL53 nuclear egress complex (human cytomegalovirus). normalized percent inhibition;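 active means both replicates at 50% or more, plus weaker picks with an unusually low signal ratio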;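 further: stock transfer was 100 nL into about 20 µL; 0% = negative control wells and 100% = wells with untagged competitor protein; inactives centre near -12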
# Sa growth 42C second temp: second read-out of Sa growth 42C, no call of its own (marks repeat the call); relative growth, %; measured here: growth at 30 °C;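 optical density after 20 h as mean of two plates; 100% = untreated growth and lower means inhibition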
# Numbers without * were called inactive; ? = inconclusive; . = not tested or not shown; & = joins results of further samples.
# The opening 5 entries (preview)
# Fields – GIV-Gai inh	Sa growth 42C	Sa growth 42C second temp	HCMV UL50-53 inh
CC1(C)Cc2ccccc2C2=NNC(=O)C2=N1
 : 76*	37	16	-29
O=S(=O)(c1ccc(F)cc1)c1nc(-c2ccc(F)cc2)oc1NCc1ccco1
 : 107	.	.	-16
NC1=NNC2=C(c3ccccc3C(F)(F)F)NNN12
 : .	80	48	-47
O=c1/c(=C2/CCCCCN2)c2nc(-c3ccccc3)cn2n1-c1ccccc1
 : .	104	98	-2
COc1ccccc1C(=O)N/C(=C\c1ccccc1)C(=O)N1CCOCC1
 : 103	96	82	.

# This part in full, from the first entry:
# Fields – GIV-Gai inh	Sa growth 42C	Sa growth 42C second temp	HCMV UL50-53 inh
CC1(C)Cc2ccccc2C2=NNC(=O)C2=N1
 : 76*	37	16	-29
O=S(=O)(c1ccc(F)cc1)c1nc(-c2ccc(F)cc2)oc1NCc1ccco1
 : 107	.	.	-16
NC1=NNC2=C(c3ccccc3C(F)(F)F)NNN12
 : .	80	48	-47
O=c1/c(=C2/CCCCCN2)c2nc(-c3ccccc3)cn2n1-c1ccccc1
 : .	104	98	-2
COc1ccccc1C(=O)N/C(=C\c1ccccc1)C(=O)N1CCOCC1
 : 103	96	82	.
CCN1C(=O)CCC1(C)C(=O)NC1CCCC1 (stereo not given)
 : 107	85	92	-28
COc1ccc(C)cc1N1C(=O)Cn2cccc2C1C(=O)NC1CCC(C)CC1 (stereo not given)
 : 102&109	89	90	1
Cc1nc2ccccc2nc1CSc1nc2sc3c(c2c(=O)n1C)CCC(C)C3 (stereo not given)
 : .	79	85	-5
CNC(=O)NC(=O)CSc1nnc(-c2ccco2)o1
 : 107	109	91	3
Nc1cccc(F)c1-c1ncon1
 : 111	94	93	-10
Cc1cc(-c2ccccc2)nc2cc(C(=O)Nc3ccc(Cl)c(Cl)c3)nn12
 : 104	102	95	-22
O=C(CN1CCCc2ccccc21)Nc1ccccc1
 : 115	95	77	-8
CC(C)N1CC(C(=O)Nc2ccc(Cl)c(Cl)c2)CC1=O (stereo not given)
 : .	96	77	-9
CCc1ccc(NC(=O)Cn2ncc3c(C)n(Cc4cccc(Cl)c4)c(C)c3c2=O)cc1
 : 105	110	89	-11
O=C(Cc1csc(NC(=O)c2ccccc2)n1)NC1CCCC1
 : 107	.	.	-2
COC(=O)c1cnn2c(C)c(Cc3c(C)cc(C)cc3C)c(C)nc12
 : 109	121	93	.
Cc1onc(-c2ccccc2)c1C1=N/C(=C\c2cccc(Br)c2)C(=O)O1
 : 102	.	.	-13
COc1cc(/C=C/C(=O)OCC(=O)Nc2cccc(F)c2)ccc1O
 : .	92	77	-56
Cc1oc(-c2cccc(Cl)c2)nc1CSc1nc2c(c(=O)[nH]1)CCCC2
 : 106	94	91	.
O=S1(=O)N=C(Cl)c2ccccc21
 : .	108	106	8
COc1cccc(N2CCN(C(=O)C3CCCN(S(=O)(=O)c4cccc5nsnc45)C3)CC2)c1 (stereo not given)
 : 105	105	84	-78
O=C(Cn1c(=O)c(C(F)(F)F)nc2ccccc21)NCc1ccc(Cl)cc1
 : 100	.	.	-18
COc1ccccc1C1CCN(Cc2cccc(C(=O)N3CCC(O)CC3)c2)CC1
 : 106	105	92	5
CCOC(=O)c1sc(NC(=O)c2cc(=O)c3cc(Cl)ccc3o2)c(C(=O)OCC)c1C
 : 96	.	.	-10
Cc1c(Cl)cccc1-n1ncc(C(=O)N2CCc3ccccc3C2)c1C1CCN(C(=O)OC(C)(C)C)CC1
 : 101	92	89	.
CC1=C(C(=O)OCC2CCCO2)C(c2ccc(C)o2)C2=C(CCCC2=O)N1 (stereo not given)
 : 103	98	79	-27
COCCCNC(=O)Nc1ncc(-c2ccccc2)n1C
 : 104	.	.	-24
CCCCn1cc(C(=O)c2cc(C)ccc2O)cc(C#N)c1=O
 : .	83	83	-9
CCCN(CC1CC1)C(=O)CSc1nnc(Nc2ccccc2F)s1
 : .	96	87	-9
COc1ccc(NC(=O)CCCN2C(=O)C(c3ccccc3)Oc3cccnc32)cc1OC (stereo not given)
 : 100	90	82	.

# Profiles, looked up by structure. Order of screens: GIV-Gai inh, Sa growth 42C, Sa growth 42C second temp, HCMV UL50-53 inh
# COc1cccc(N2CCN(C(=O)C3CCCN(S(=O)(=O)c4cccc5nsnc45)C3)CC2)c1 (stereo not given) reads 105, 105, 84, -78
# CCCCn1cc(C(=O)c2cc(C)ccc2O)cc(C#N)c1=O reads ., 83, 83, -9
# CCOC(=O)c1sc(NC(=O)c2cc(=O)c3cc(Cl)ccc3o2)c(C(=O)OCC)c1C reads 96, ., ., -10
# Cc1c(Cl)cccc1-n1ncc(C(=O)N2CCc3ccccc3C2)c1C1CCN(C(=O)OC(C)(C)C)CC1 reads 101, 92, 89, .
# COCCCNC(=O)Nc1ncc(-c2ccccc2)n1C reads 104, ., ., -24

# Next part.
# Fields – GIV-Gai inh	Sa growth 42C	Sa growth 42C second temp	HCMV UL50-53 inh
CCCCOc1ccc(-c2cc3c(N4CCN(C)CC4)nccn3n2)cc1
 : 110	.	.	-7
CCCOc1ccc(C(=O)Nc2sc3c(c2C(=O)OCC)CCCCC3)cc1
 : 106	92	86	-37
O=C(NCc1ccc2c(c1)OCO2)c1cccc(C(=O)NCc2ccc3c(c2)OCO3)c1
 : 97	108	67	-21
O=C(CCCc1nc2cccnc2n1Cc1ccccc1)N1CCCC1
 : 130	.	.	-11
COc1ccc(C2(C(=O)N3CCC(n4nc(-c5ccccc5)oc4=O)CC3)CC2)cc1
 : 105	118	95	-8
c1ccc(-c2nn3c(-c4ccccc4)nnc3c3ccccc23)cc1
 : 103	83	94	.
COc1ccc(NC(=O)N2CCCN(C(=O)c3nonc3N)CC2)cc1
 : 102	.	.	-24
O=C(CN1C(=O)COc2ccc(C(=O)N3CCCC3)cc21)NCCC1=CCCCC1
 : 104	.	.	-20
COc1cc2c(N3C(=O)CCC3=O)c3c(=O)oc(C)cn3c2cc1OC
 : 99	101	88	.
CCOC(=O)c1cccc(NC(=O)CC2C(=O)N(c3ccc(C)cc3)C(=O)N2Cc2cccc(OC)c2)c1 (stereo not given)
 : 102	84	79	.
CC1CC(C)(C)NC(=S)N1CCC(=O)N1c2ccccc2CC1C (stereo not given)
 : 104	107	97	.
COc1ccccc1C(=O)Nc1ccc(-c2cc(C(F)(F)F)nn2-c2ccccc2)cc1
 : 98	85	94	8
Cc1ccc(-c2nn(C)c(=O)c3ccccc23)cc1CNC(=O)CSc1nc2ccccc2o1
 : 102	92	91	-3
Cc1[nH]c2ccc(C(=O)Nc3ccccc3N3CCOCC3)cc2c1C
 : .	100	92	-8
O=C(Nc1ccccc1Cl)c1nc(Nc2ccccc2)c2ccccc2n1
 : 103	.	.	-27
N#CC(Cc1cccnc1)C(=O)Nc1ccccc1 (stereo not given)
 : 108	116	111	9
COc1ccccc1C(=O)Nc1cccc(OCc2cc(=O)n3c4c(sc3n2)CCCC4)c1
 : 105	85	85	-6
CCc1ccc(N2CC(C(=O)NC(C)CC)CC2=O)cc1 (stereo not given)
 : 104	107	79	-11
CC(C)(C)C1CCC(C(=O)O)CC1 (stereo not given)
 : 101	98	111	8
Cc1ccc(Cl)cc1NC(=O)CCc1c(C)nc2c3cccnc3nn2c1C
 : 108	99	83	14
O=C(CSc1nc2ccccc2o1)NCCc1ccccc1
 : .	?	.	-26
Cc1cc(C)c(NS(=O)(=O)c2ccc(-c3cnc(C4CC4)o3)cc2)c(C)c1
 : 103	73	74	.
CCOC(=O)CCNC(=O)N1CCN(S(=O)(=O)c2ccc3c(ccn3C)c2)CC1
 : 104	96	99	.
C=CCn1c(=C(C#N)C#N)s/c(=C\c2ccccc2OC(F)F)c1=O
 : .	53	54	-26
O=C1CC(Sc2nnc(-c3ccccc3O)o2)C(=O)N1c1ccc(Br)cc1 (stereo not given)
 : 100	61	8	-4
Cc1[nH]c2ccc(F)cc2c1CCN(Cc1ccco1)C(=S)NC1CCCCC1
 : 100	111	81	.
CC(=O)Nc1ccc(Sc2ccccc2C(=O)O)c(C(=O)O)c1
 : 106	91	94	4
CC1=C/C(=N/NC(=O)COc2cc(C)ccc2C(C)C)CC1
 : .	121	93	0
CCOc1ccc(CCNC(=O)CCc2c(C)nc3cc(-c4ccccc4OC)nn3c2C)cc1
 : 101	104	85	-32
COc1cc(CNc2ccc3[nH]c(=O)[nH]c3c2)cc(Cl)c1OCc1ccc(F)cc1
 : 105	110	92	-12
CC1(C)NCSC1C(=O)O (stereo not given)
 : 108	105	74	6
COc1cccc(/C=N/NC(=O)COc2c(C)cccc2C)c1O
 : 97	105	82	-17
Cc1ccc(N(CC(=O)Nc2ccc(C)c(C)c2)S(=O)(=O)c2c(C)nn(C)c2C)cc1
 : 99	100	91	5
O=C(OCc1ccccc1)c1cccc(-c2nnc(-c3ccccc3)o2)c1
 : 102	89	99	-14
Clc1ccc(-c2noc3ncnc(NC4CC4)c23)cc1
 : 104&101	97	82	-26&9
CCN(Cc1ccccc1)C(=O)CCS(=O)(=O)c1cc2c(cc1Cl)NC(=O)CO2
 : 101	126	87	.
CCOc1ccc(CCN=C(CC)C2=C(O)CCCC2=O)cc1OCC
 : .	90	89	6
C=CCN1CC(c2nc3ccccc3n2CC(O)COc2ccc(C)cc2C)CC1=O (stereo not given)
 : 107	.	.	2
O=C(NCCCCc1ccccc1)c1nn(-c2ccccc2)nc1CO
 : 101	75	80	-30
CCOC(=O)C1CCN(C(=O)c2ccccc2NC(=O)c2nsc3ccccc23)CC1
 : 101	90	100	.
Cc1cc(=O)n(CC(=O)NC(C)c2ccccc2)c2c1c(C)nn2C (stereo not given)
 : 104	94	79	.
COc1ccc(CNS(=O)(=O)c2ccc(-c3cc(C)no3)cc2)cc1
 : 102	100	79	-25
CCc1ccccc1NC(=O)c1noc2c1CCCCC2
 : 94	101	98	8
Cc1nc2nc(SCC(=O)NCC3COc4ccccc4O3)nn2c(C)c1Cc1ccccc1 (stereo not given)
 : 97	101	83	-8
N#CC1=C(N)OC2=C(C(=O)CCC2)C1c1cccnc1 (stereo not given)
 : 98	118	105	-6
Cc1ccc(C)n1NC(=O)c1cccc(Br)c1
 : 102	87	79	-22
O=C(c1ccco1)N1CCCSC1=Nc1ccccc1
 : .	102	93	-11
CS(=O)(=O)c1nc2ccccc2n1C/C=C/c1ccccc1
 : 99	92	82	-18
O=C(Nc1ccccc1)N(Cc1c[nH]c2ccccc12)C1CCCC1
 : 101	108	94	-11
Cc1c(O)ccc(/C(Cc2ccc3ccccc3n2)=N\N)c1O
 : .	54	66	-8
Nc1ccc2c3c(cccc13)C(=O)NC2=O
 : -8.0*	.	.	-66&-79
CCOc1ccc2c(c1)c(=O)c1cccnc1n2Cc1cccc(OC)c1
 : 107	91	92	-22
O=N/C(C(=O)c1ccccc1)=C(\O)c1ccccc1
 : .	148	94	-17
CCOC(=O)C1(CCSC)NC(c2cccs2)C2C(=O)N(CC)C(=O)C21 (stereo not given)
 : 105	129	91	-5
O=C(Oc1ccc(F)cc1)/C(=C\c1cccs1)c1ccsc1
 : 105	82	88	-51
CN(C)c1ccc(-n2cccc2/C=N/n2cnnc2)cc1
 : 104	105	88	.
COc1ccc(N=C2C(=O)N(c3ccccc3)c3ccccc32)cc1
 : 104	.	.	4
CSc1ccc(CCNC(=O)CCc2c(C)nc3c(c(C)nn3-c3ccc(C)c(C)c3)c2C)cc1
 : 102	106	90	-38
CNS(=O)(=O)c1cn(CC(=O)N2CCN(c3ccc(C(C)=O)cc3)CC2)cc1S(=O)(=O)NC
 : 99	89	96	.
Cc1ccc(CNC(=O)CN(C)S(=O)(=O)c2ccc3c(c2)c(=O)n(C)c(=O)n3C)cc1
 : 99	86	90	3

# New compounds follow
# Fields – GIV-Gai inh	Sa growth 42C	Sa growth 42C second temp	HCMV UL50-53 inh
S=C(c1ccccn1)N1CCN(C(=S)c2ccccn2)CC1
 : 107	90	84	-31
Fc1cccc(NCc2ccccc2-c2nnc(-c3ccccc3Cl)o2)c1
 : 110	99	98	7
COCCCn1c(C)nnc1SCc1ccc(C(C)(C)C)cc1
 : 103	95	82	1
CCN(CC)S(=O)(=O)N1CCC(C(=O)Nc2ccc3sc(NC(=O)C(C)C)nc3c2)CC1
 : 104	.	.	-23
Cc1cccc(C)c1-n1ncc(C(=O)NCCN2CCN(C)CC2)c1C1CCN(C(=O)OC(C)(C)C)CC1
 : 108	104	102	.
O=C1CCCc2cc(S(=O)(=O)NCC3CCC(C(=O)NCc4ccccc4Cl)CC3)ccc2N1 (stereo not given)
 : 102	91	95	.
CCN(C(=O)N(C)C)c1ccccc1C
 : 105	125	98	-3
CCOC(=O)CN1C(=O)S/C(=C/c2ccc3c(c2)n(C)c(=O)n3C)C1=O
 : 104	102	91	.
c1ccc(C2=NCCCN2)cc1
 : .	67	82	-26
C=CCn1c(SCC(=O)NCc2cccnc2)nc2sc3c(c2c1=O)CCCC3
 : 103	.	.	-31
CCCn1c(=O)c(-c2nc3ccccc3[nH]2)c(O)c2ccccc21
 : 103	107	74	-101
Cn1nc(C(C)(C)C)cc1C(=O)NCc1ccc2c(c1)OCO2
 : 96	120	86	-21
COc1ccc(-c2nc(OCC(=O)Nc3ccccc3)c3c4c(sc3n2)CCCC4)cc1
 : 106	.	.	5
CSc1ccc(CCNC(=O)c2ccc3c(c2)nc2n3CCCCC2)cc1
 : 107	92	88	.
CC1(C)Oc2ccc3ccc(=O)oc3c2C/C1=N/O
 : 101	96	78	-25
